Screening data: PubChem BioAssay, National Center for Advancing Translational Sciences (NCATS)
ClpP mod – qHTS Assay for Activators of ClpP | ATP-dependent Clp protease proteolytic subunit (Bacillus subtilis (strain 168)), P80244 | AID 651965, 2013 | 340,000 tested, 1.9% active | Potency, µM (highest dose often 57.5 µM), without a hit: at the highest dose activity change, negative = active | purified B. subtilis ClpP, FRET peptide cleavage, 20 min; active = well fitted falling curve with a large enough effect; inconclusive = small, poorly fitted or top-dose-only effect; inactive = no such curve, though single readings can be large or run the other way; also: potency is read from the fitted curve at half-maximal effect; the source files actives as falling curves though it sought activators and does not explain the sign; nearly all actives have a fitted effect of over 65% in size; many hits overshoot -100%
Target sequence (P80244 whole entry, looked up): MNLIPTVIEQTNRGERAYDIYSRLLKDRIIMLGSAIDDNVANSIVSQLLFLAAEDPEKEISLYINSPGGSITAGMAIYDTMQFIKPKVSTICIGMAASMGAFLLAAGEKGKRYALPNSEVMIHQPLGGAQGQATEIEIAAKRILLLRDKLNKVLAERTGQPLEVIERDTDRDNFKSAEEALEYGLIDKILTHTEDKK
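FRET quenching reversal measured ClpP activation: 10 microg/mL B. subtilis ClpP at pH 8 with the FRET-FV decapeptide, read at 430 nm after 320 nm excitation. The 20-min minus 0-min signal was scaled between DMSO/no-enzyme wells and ADEP (5.8 microM final).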
CtBP-E1A blk – inhibitors of CtBP/E1A interaction; activity change, % (test concentration not listed); 340,000 tested, 0.49% active; AlphaScreen GST-E1A/His-CtBP binding, 1536-well; stronger effect = lower value; control for the full effect not named in the record; in the data active means activity change below about -65%; inconclusive means about -30% to -65%; inactive means above about -30%; also: % is scaled to controls: 0 for no effect and ±100 for the full control effect; compound concentration not given in the record
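Protein mix (5X: 125 nM each GST-E1A, His-CtBP) was incubated with pinned compound 2 h at 37 deg C in dark, in 50 mM Tris pH 8.0 buffer with 300 mM NaCl. Glutathione donor and nickel acceptor beads followed; AlphaScreen signal read after 1 h.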
Sfp PPTase inh – Sfp phosphopantetheinyl transferase inhibition. Potency, µM, for inactives: max response, negative = inhibition, most hits filed as inhibitors. 310,000 tested, 3.5% active. Q9F4F7. Biochemical Sfp PPTase activity, qHTS; active = well fitted inhibition curve with a large enough effect; inconclusive = small, poorly fitted or top-dose-only effect, or another doubt; inactive = no such curve, though single readings can be large or run the other way;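 also: the enzyme is Sfp with the accession as filed and its product quenches rhodamine fluorescence; potency is read from the fitted curve at half-maximal effect; 0% = enzyme reaction without inhibitor and -100% = no enzyme wells; top concentration of the series not given in the record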
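After 15 min at room temperature with compound, 15 nM Sfp received 5 uM rhodamine-CoA plus 12.5 uM BHQ-2-ybbR (50 mM Hepes pH 7.6, 10 mM MgCl2). Rate came from the fluorescence difference over 30 min, ex 525/em 598 nm.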
gsp antag – antagonists of gsp mutant (McCune-Albright syndrome); gsp-mutant cells, cAMP HTRF, 30 min; control for the full effect not named in the record; Potency, µM (titrated, usually from 76.9 µM), for inactives: at the top dose activity change, negative = inhibition, usual class: inhibitors; 340,000 tested, 0.4% active; active = falling curve of any shape with a large fitted effect; inconclusive = falling curve, mostly with a smaller effect; inactive = flat or rising curve; cell line not stated here;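 also: intracellular cAMP measured with PDE inhibitor Ro 20-1724 present during compound exposure; potency is read from the fitted curve at half-maximal effect; % is scaled to controls: 0 for no effect and ±100 for the full control effect; nearly all actives have a fitted effect of over 65% in size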
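Measurement of cellular cAMP by homogeneous time-resolved fluorescence following a 30 min compound exposure at 37C. The PDE inhibitor […] was present throughout; the assay buffer was DPBS with 0.05% BSA and 0.005% Tween 20.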
TRPV1 potentiator – enhances activation of the human vanilloid receptor TRPV1 | Q8NER1 | TRPV1-expressing cells, Fluo-8 calcium influx, capsaicin EC20 potentiation; host cell line not named in the record; control for the full effect not named in the record | potentiation, % at 8.33 µM | 320,000 tested, 0.02% active | AID 540277; active means potentiation above 80%; inconclusive means 30% to 80%; inactive means below 30%; also: 0% is about no effect
Target sequence (Q8NER1 whole entry, looked up): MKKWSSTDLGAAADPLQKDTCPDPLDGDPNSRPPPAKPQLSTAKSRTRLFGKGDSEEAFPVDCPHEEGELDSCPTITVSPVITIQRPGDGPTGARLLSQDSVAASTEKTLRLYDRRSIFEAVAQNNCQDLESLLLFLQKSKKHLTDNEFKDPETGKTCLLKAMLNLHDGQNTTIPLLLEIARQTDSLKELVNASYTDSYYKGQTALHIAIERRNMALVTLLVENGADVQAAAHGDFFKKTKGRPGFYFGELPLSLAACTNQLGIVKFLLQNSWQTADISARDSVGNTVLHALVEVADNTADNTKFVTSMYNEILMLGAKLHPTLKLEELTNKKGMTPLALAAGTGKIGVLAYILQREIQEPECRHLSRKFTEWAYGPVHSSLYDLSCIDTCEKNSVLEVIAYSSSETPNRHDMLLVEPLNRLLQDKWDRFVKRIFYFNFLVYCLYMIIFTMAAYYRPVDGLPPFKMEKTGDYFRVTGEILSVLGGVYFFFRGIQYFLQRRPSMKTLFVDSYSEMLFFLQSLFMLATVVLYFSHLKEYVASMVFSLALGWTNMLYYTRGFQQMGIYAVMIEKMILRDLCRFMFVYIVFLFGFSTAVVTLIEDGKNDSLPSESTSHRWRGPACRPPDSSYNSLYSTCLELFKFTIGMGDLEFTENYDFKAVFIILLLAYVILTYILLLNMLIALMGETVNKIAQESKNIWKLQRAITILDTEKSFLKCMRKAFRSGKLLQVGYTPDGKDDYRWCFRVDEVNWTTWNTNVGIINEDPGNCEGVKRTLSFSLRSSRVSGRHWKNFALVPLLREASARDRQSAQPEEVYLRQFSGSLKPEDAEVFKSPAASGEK
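Cells expressing TRPV1 were dye-loaded with Fluo-8 and read kinetically: 10 s baseline, 3 min after compound (agonist portion), then 2 min after EC20 capsaicin (allosteric enhancer portion). Calcium-bound dye fluorescence at 480/520 nm.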
gsp ag – activates gsp, the McCune-Albright syndrome mutation; 340,000 tested, 0.13% active; gsp mutant cells, cAMP HTRF, 30 min; control for the full effect not named in the record; Potency, µM (titrated, usually from 76.9 µM), for the others: top-dose activation (cAMP increase), usual class: activators; AID 624287; active = well fitted activation curve with a large enough effect; inconclusive = small, poorly fitted or top-dose-only effect, or another doubt; inactive = no such curve, though single readings can be large or run the other way; cell line not stated here;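 also: phosphodiesterase inhibitor Ro 20-1724 added with compounds to block cAMP breakdown; potency is read from the fitted curve at half-maximal effect; nearly all actives have a fitted effect of over 60% in size; about a fifth of the inactives were tested at one dose only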
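Cells stably selected in G418 were plated at 2000/well, grown 16-24 hr, then given compounds in DMSO with the PDE inhibitor […] (300 uM solution added) for 30 min at 37C; cAMP was read by HTRF.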
Menin-MLL FL inh – displaces fluorescein MLL peptide from human menin; 290,000 tested, under 10 active; FP activity change, % at 61.4 µM; Fluorescence polarization, fluorescein-MLL peptide displacement from menin; inconclusive = falling polarisation curve, or a change in total fluorescence; inactive = total fluorescence flat and polarisation flat or rising; no compound was filed as active; the % refers to the polarisation; negative = inhibition;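 also: % of control where 0% means no effect; inhibitors lower the polarisation; unlabelled MLL peptide was the positive control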
An asterisk follows results filed as active; ? = inconclusive; · = no result given; & = joins results of further samples; [ ] = dose if it differs, or a comment. Rows were taken by chance; 5.3% or so of the library scored in one or more.

SMILES	ClpP mod	CtBP-E1A blk	Sfp PPTase inh	gsp antag	TRPV1 potentiator	gsp ag	Menin-MLL FL inh
CCCN(CC(=O)Nc1ccccc1C)C(=O)C1CCN(S(=O)(=O)c2ccc(C)c(C)c2)CC1	0.1%	1	·	·	·	-46%[inhibitor]	·
C[C@H](NC(=O)c1ccco1)C(=O)Nc1ccc2c(c1)OCO2	·	3	-13%	-1%	4	1%	-1.0
CC(=O)c1ccc(Nc2nc(-c3sc(C)nc3C)cs2)cc1	?	-14	·	·	·	-44%[inhibitor]	·
CCn1c(SCC(=O)Nc2cccc(C(C)=O)c2)nnc1C(C)C	0.7%	-5	8%	-23%	-4	0%	0.2
Cc1c(Br)c(=O)oc2c(C)c(O)ccc12	-30%	?	2%	24%	-5	?	1.9
CCCN(CC(=O)Nc1ccccc1OC)C(=O)CN1C(=O)NC(C)(C)C1=O	1.4%	0	·	·	·	3%	·
Cc1cc(C(=O)NCCc2ccc(Cl)cc2)no1	·	0	20%	-3%	-17	-25%	0.6
COc1ccccc1NC(=O)Cc1nnc(SCC(=O)Nc2nccs2)n1C	·	-1	16%	-2%	14	?	1.6
CCOc1ccccc1CN1CCNC(=O)C1CC(=O)NCc1ccccn1 (stereo not given)	-8.2%	?	-2%	-1%	4	0%	·
COc1cccc(NC(=S)Nc2cc(C)cc(C)n2)c1	·	-3	3%	4%	·	11%[15.4 µM]	1.4
COc1ccc(-c2ccc(=O)n(Cc3cccc([N+](=O)[O-])c3)n2)cc1	-0.8%	·	-2%	-19%	-14	-6%	-1.1
Cc1cc(-c2nc(C)c(-c3nnc(SCC(=O)Nc4cc(Cl)cc(Cl)c4)n3C)s2)no1	·	6	5%	?	-2	0%	-0.4
c1cnc2c(Oc3ncnc4sccc34)cccc2c1	-3.0%	·	10%	7%	-8	-1%	-0.2
O=C(CCCCCn1c(=S)[nH]c2ccc(N3CCOCC3)cc2c1=O)NCc1ccc(Cl)cc1	0.4%	3	-16%	10%	24	-1%[15.4 µM]	-0.1
CCOC(=O)N1CCC(NCCNC(=O)c2cccs2)CC1	1.5%	6	-20%	18%	-12	4%	4.1
CCOC(=O)C1(CCCc2ccccc2)CCN(C(=O)c2ocnc2C)CC1	·	-7	3%	-10%	-15	5%[15.4 µM]	1.0
COCCN(Cc1ccccc1)C(=S)Nc1ccc(OC(F)F)cc1	·	10	3%	-1%	-10	1%[15.4 µM]	8.4
O=C(CN1CCN(Cc2ccc(F)cc2Cl)CC1)NCc1ccccc1	1.2%	-2	16%	11%	19	7%	0.2
COc1ccc([N+](=O)[O-])cc1NC(=O)c1ccc(N2C(=O)CCC2=O)cc1	·	-1	9%	4%	-3	6%[15.4 µM]	-0.5
CCOc1ccc(NC(=O)c2cc3ccccc3cc2O)cc1	-3.1%	·	16%	-1%	25	0%	3.6
COc1ccc(NC(=O)NCc2ccccc2F)cc1OC	-2.4%	-7	25%	2%	-9	?	0.9
COc1cc([N+](=O)[O-])ccc1NC(=O)CCS(=O)(=O)c1ccc2c(c1)n(C)c(=O)c(=O)n2C	-2.2%	9	13%	-4%	21	?	·
O=C(/C=C/c1cccs1)N1CCOCC1	1.8%	1	5%	5%	1	-52%[inhibitor]	7.1
Cc1cccc(OCC(=O)Nc2ccncc2)c1	·	10	·	0%	·	10%	·
COC(=O)c1c(NC(=O)Cc2cccs2)sc(C(=O)NC2CCCCC2)c1C	-3.7%	7	·	5%	·	?	·
SMILES	ClpP mod	CtBP-E1A blk	Sfp PPTase inh	gsp antag	TRPV1 potentiator	gsp ag	Menin-MLL FL inh
O=C(CSc1nc2ccccc2[nH]1)N1c2ccccc2Sc2ccccc21	1.1%	24	-18%	-33%	-15	1%	7.1
O=C(C1CCN(S(=O)(=O)c2cccs2)CC1)N1CCCCC1	-1.4%	-11	3%	8%	-19	35%	·
CN(C(=O)COC(=O)C1CCN(S(=O)(=O)c2ccc(Cl)cc2)CC1)C1CCS(=O)(=O)C1 (stereo not given)	·	7	·	4%	·	-35%[inhibitor]	·
COc1cc(/C=C(\C#N)c2nc3ccccc3[nH]2)ccc1O	-2.9%	·	-3%	-2%	?	1%	?
Cc1cccc(C)c1NC(=O)COC(=O)C1CC(=O)N(Cc2ccccc2)C1 (stereo not given)	0.9%	1	32%[activator]	7%	-6	14%[15.4 µM]	-0.8
Cc1ccccc1OCC(O)CNC1CCCC1 (stereo not given)	-0.2%	-5	1%	13%	-2	5%[15.4 µM]	-1.1
CCOC(=O)C1C(=O)NC(N2CCCCC2)=NC1C(C)C (stereo not given)	1.0%	-3	12%	-5%	19	-2%	2.0
Cc1ccccc1NC(=O)C(C)O/N=C/c1cccc([N+](=O)[O-])c1 (stereo not given)	-0.4%	-2	5%	-15%	-9	-5%	-1.3
Fc1ccc(NC(=S)N2CCN(c3ncccn3)CC2)cc1	-3.7%	10	4%	1%	8	8%	1.5
CN1C(=O)N(CC(=O)Nc2ccc(C(F)(F)F)cc2)C(=O)C12CCCCC2	1.5%	3	·	11%	-21	-21%	·
COc1ccc(C2CC(c3c(O)cc(C)oc3=O)=NCCS2)c(OC)c1 (stereo not given)	-0.4%	-1	-1%&-25%	16%	1	2%	?
O=c1c([N+](=O)[O-])c(N2CCCCC2)c2ccccc2n1-c1ccccc1	1.4%	3	3%	7%	3	-10%	3.7
CCN1CCN(CCNC(=O)CS(=O)(=O)Cc2nc(-c3ccc(C)cc3)oc2C)CC1	-12%	0	12%	-11%	-7	-21%	-1.7
CCN(CC)C(=O)c1sc(NC(=O)c2ccc3c(c2)OCO3)c(C(N)=O)c1C	-11%	?	4%	6%	?	2%[15.4 µM]	·
COc1ccc(C2c3c(oc4ccc(C)cc4c3=O)C(=O)N2c2cc(C)ccn2)cc1OC (stereo not given)	·	·	1%	·	-14	·	0.6
COc1ccc(-c2csc(-n3ncc(-c4ccccn4)c3N)n2)cc1	-6.8%	5	-2%	-2%	20	-3%[15.4 µM]	-3.8
CC1CN(S(=O)(=O)c2cccc(C(=O)N(Cc3nnc(-c4ccccc4Cl)o3)C3CC3)c2)CC(C)O1 (stereo not given)	·	0	·	-4%	-3	2%[15.4 µM]	·
COc1ccc(S(=O)(=O)Nc2cc(Sc3ncn[nH]3)c(O)c3ccccc23)cc1	·	8	3.5µM*	·	-4	·	1.8
CC(Cc1ccccc1)C(=O)NCc1nc2ccccc2s1 (stereo not given)	-5.7%	·	-10%	-5%	-28	-2%	0.2
O=S(=O)(c1ccc(SCc2ccc(Br)cc2)nc1)N1CCCCC1	-2.4%	-5	·	4%	0	12%	·
Cc1ccnc(SCc2cc(=O)c(OC(=O)c3ccc(S(=O)(=O)N4CCCC4)cc3)co2)n1	0.9%	1	-17%	1%	2	0%[15.4 µM]	9.4
CCn1c(=N)c(C(=O)NC)cc2c(=O)n3cccc(C)c3nc21	14%	-12	-7%	7%	9	12%	5.0
CCOc1cc(/C=N/NC(=O)c2ccncc2)cc(Br)c1O	-1.0%	-5	·	·	·	-83%[inhibitor]	·
CCn1c2ccccc2c2cc(NC(=O)CSc3nnc(-c4ccc(OC)c(OC)c4)n3N)ccc21	-4.5%	-6	13%	6%	15	17%	1.2
C#CCOCCOCCOCCNc1nc(N2CCN(C(=O)[C@H]([C@@H](C)O)n3cc(CCCCN)nn3)CC2)nc(N2CCN(C(=O)[C@H]([C@@H](C)CC)n3cc(CCCN=C(N)N)nn3)CC2)n1	-1.1%	1	0%	8%	2	·	0.0
SMILES	ClpP mod	CtBP-E1A blk	Sfp PPTase inh	gsp antag	TRPV1 potentiator	gsp ag	Menin-MLL FL inh
CC1(C)C(=O)OC(c2cccs2)C(C)(C)C1=O (stereo not given)	0.0%	4	10%	-2%	3	5%	0.0
O=S(=O)(NCCN1CCOCC1)c1ccc(Cl)c(Cl)c1	-3.6%	·	7%	9%	4	10%	-0.6
C[C@@H]1CNC(=O)c2c(C(=O)N[C@H](C)c3ccccc3)ncn21	3.0%	-10	·	·	·	2%	·
COc1cc(CN2CCN(Cc3c[nH]c4ccccc34)CC2CCO)cc(OC)c1 (stereo not given)	0.2%	·	21%	8%	3	-30%	-8.4
CC1CCN(S(=O)(=O)c2ccc3c(c2)N(C)C(=O)CC(=O)N3C)CC1	0.5%&-1.2%	1	-29%	7%	-8	?	1.6
CC1CCCCN1C(=O)Cn1c(=O)oc2cc(S(=O)(=O)N3CCCCC3)ccc21 (stereo not given)	-1.5%	-18	11%	6%	4	25%	-5.1
Cc1cc(OC(C)C(=O)N2CCN(c3ccc(F)cc3)CC2)c2c(C)cc(=O)oc2c1 (stereo not given)	-12%	7	8%	5%	3	-2%	-2.1
C=CCSc1nc2sc3c(c2c(=O)[nH]1)CC(C)(CC)OC3 (stereo not given)	·	9	-1%	-12%	-11	?	-0.3
CC1(C)CC(=O)C2=C(C1)Nc1ccccc1N=C2	·	·	40µM*	·	0	·	?
CCC(C(=O)Nc1ccsc1C(=O)OC)c1ccccc1 (stereo not given)	·	22	-26%	?	-14	2%[15.4 µM]	8.0
COc1ccccc1N1CCN(CC(=O)c2c(C)[nH]c3ccccc23)CC1	0.4%	12	4%	1%	14	-2%	5.3
Nc1ncnc2c1ncn2[C@@H]1O[C@H](CNS(=O)(=O)c2ccc(-c3ccno3)s2)[C@@H](O)[C@H]1O	-1.6%	3	·	5%	·	·	·
S=c1[nH]c(-c2ccccc2)cn1/N=C/c1cccc2ccccc12	·	2	-11%	·	0	-13%[15.4 µM]	0.5
O=C(c1ccccc1)N1CCN(CC#CC2(O)CCCCC2)CC1	-0.9%	2	1%	4%	-3	-8%	-2.5
O=C(c1cccs1)N1CCN(c2cc(Cl)ccc2Cl)CC1	-1.9%	-2	-16%	-24%	0	9%	-0.2
CCN(CC)CCNc1cc(C)nc2c1C(=O)C(=O)C=C2N1CCCCC1	-0.2%	·	9%	-4%	-5	6%	-16
Cc1ccc(C(=O)N2CCN(C(=O)c3ccccc3)C2c2ccc(N(C)C)cc2)cc1 (stereo not given)	-1.8%	-13	-8%	0%	1	6%	5.3
